HSV replic up – enhancers of HSV replication in host cells, fold increase, host cell viability. HSV replication augmentation in cells. maximum fold increase. 220,000 tested, 0.005% active;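 active = peak rise of 1.5-fold or more in the series; inconclusive = self-fluorescent or not available for retest; tested in PC3 cells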;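 note: first round at 10 µM; read as green reporter fluorescence; hits show the peak of a series up to 25 µM; 1 = signal of infected wells without compound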
GALR2 agonist – GALR2 receptor agonists, primary screen, cell-based; Galanin receptor type 2 (Homo sapiens), O43603; GALR2-expressing cells, agonist activation read-out; activation, %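 (tested at 5 µM)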; 140,000 tested, 0.48% active; AID 803, 2007;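 active = above mean plus 3 SD of all compounds, about 5% in these data, not always enough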;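 note: 0% = vehicle buffer wells and 100% = reference agonist at full effect; tested in CHO reporter cells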
INS promoter inh – inhibitors of insulin promoter-driven GFP, primary screen, imaging, TRM-6 cells (human fetal islet line), eGFP reporter, cell count; reporter expression induced with tamoxifen; inhibition, % at 2 µM; 130,000 tested, 0.9% active; AID 1273, 2008;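 active = inhibition above the mean plus 3 SD, with well images judged a real hit on visual review, cut at about 60% in these data, passing the limit was not always enough; inconclusive = inhibition over the cutoff but images rejected on review; inactive = inhibition not above the cutoff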
PKD1 kinase inh – inhibitors of human PKD1 kinase, biochemical, fluorescence polarization | PKD1 kinase fluorescence polarization assay | inhibition, %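 (about 10 µM by stock and volumes)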 | 200,000 tested, 0.056% active | Serine/threonine-protein kinase D1 (Homo sapiens), Q15139 | AID 797, 2007;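 active = inhibition of 50% or more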;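 note: controls were vehicle for no effect and a reference inhibitor for full effect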
Target sequence (Q15139 whole entry, looked up): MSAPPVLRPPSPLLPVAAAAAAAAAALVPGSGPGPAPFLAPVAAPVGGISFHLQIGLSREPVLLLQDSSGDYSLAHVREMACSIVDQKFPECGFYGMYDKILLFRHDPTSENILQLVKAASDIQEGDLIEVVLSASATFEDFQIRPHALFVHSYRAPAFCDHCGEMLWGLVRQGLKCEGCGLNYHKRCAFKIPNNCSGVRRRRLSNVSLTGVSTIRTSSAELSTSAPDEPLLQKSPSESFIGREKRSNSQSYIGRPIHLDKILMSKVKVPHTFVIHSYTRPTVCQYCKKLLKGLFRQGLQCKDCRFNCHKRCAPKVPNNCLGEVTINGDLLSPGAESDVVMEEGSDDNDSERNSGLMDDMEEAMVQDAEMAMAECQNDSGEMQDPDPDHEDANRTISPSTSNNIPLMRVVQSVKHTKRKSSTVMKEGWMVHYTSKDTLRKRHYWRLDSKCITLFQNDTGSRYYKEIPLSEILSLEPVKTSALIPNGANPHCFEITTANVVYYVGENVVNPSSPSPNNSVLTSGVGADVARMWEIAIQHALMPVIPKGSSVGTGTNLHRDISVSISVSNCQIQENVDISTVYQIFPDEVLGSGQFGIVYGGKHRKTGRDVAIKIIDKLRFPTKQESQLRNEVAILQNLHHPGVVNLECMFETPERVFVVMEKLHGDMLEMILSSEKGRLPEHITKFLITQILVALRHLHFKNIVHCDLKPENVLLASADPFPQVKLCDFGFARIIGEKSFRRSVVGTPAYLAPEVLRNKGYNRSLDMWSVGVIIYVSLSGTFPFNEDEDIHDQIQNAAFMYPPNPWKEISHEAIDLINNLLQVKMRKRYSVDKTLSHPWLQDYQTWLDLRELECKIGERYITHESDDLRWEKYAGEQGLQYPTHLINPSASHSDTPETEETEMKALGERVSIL
RGS16-Gao – modulators of RGS16 binding to Galphao, primary screen, biochemical, human proteins, multiplexed bead flow cytometry. 220,000 tested, 0.38% active. binding response (% of control), % at 10 µM. bead-based flow cytometry RGS16-Galphao binding, fluorescence; actives lie on both sides;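 active = below 25% or above 175%, edge rows of some plates excepted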;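 note: Galphao activated by GDP with aluminum fluoride before binding; 100% = wells without compound and 0% = beads without RGS; some results beyond the cut were filed as inactive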
INS promoter inh cell count – recorded beside INS promoter inh, whose call it bears; normalized cell count, %; measured here: cell count, toxicity; reference of the scale not given here;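 cells exposed to compound for 48 h; stained nuclei by imaging scaled within each plate; lower means fewer cells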
HSV replic up primary fold – also measured in HSV replic up; calls as there; fold increase; compound at 10 µM; measured here: primary screen fold increase 10 uM; tested in PC3 cells;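 GFP signal in the first replicate; 1 = infected wells without compound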
Active calls of the source: *; i = inactive; ? = inconclusive; · = no result given. Random draw from the library (roughly 1.1% active in at least one column).

SMILES	HSV replic up	HSV replic up primary fold	GALR2 agonist	INS promoter inh	INS promoter inh cell count	PKD1 kinase inh	RGS16-Gao
CCOC(=O)c1ccc(NC(=O)NCc2c(C)nn(CC)c2C)cc1	i	0.9	·	·	·	-2	109
Cc1ccc(S(=O)(=O)N2CCC(=O)N(C(COCc3cccc(C(F)(F)F)c3)Cc3ccccc3)CC2)cc1 (centres undefined)	i	0.87	-0.3	-18	120	-2	103
COc1cc(OC)c(NS(=O)(=O)c2coc(C(N)=O)c2)cc1Cl	i	1.2	-2.1	·	·	-3	81
CN(C)CC(C)(C)CNS(=O)(=O)CC12CCC(CC1=O)C2(C)C (centres undefined)	i	0.9	-1.4	-41	86	-4	103
Cc1csc(SCC(=O)NC(=O)NC(C)(C)C)n1	i	0.97	·	-25	108	2	106
O=C(NCc1ccco1)c1ccccc1Br	i	0.86	-2.1	44	92	-5	102
CC1CCN(c2c(NCc3ccc(C(=O)NCc4cccnc4)cc3)c(=O)c2=O)CC1	i	0.87	-1.0	·	·	9	103
CC1(C)Cc2ccccc2C(=NCCCC(=O)O)N1	i	1.1	-1.3	·	·	-2	103
CCOC(=O)C1CCCN(c2cc(C)nc3cc(-c4ccc(F)cc4)nn23)C1 (centres undefined)	i	0.76	-0.5	·	·	3	102
O=C(CSc1nnc(COc2ccccc2)o1)c1ccccc1	i	1	-0.7	-38	73	11	104
CS(=O)(=O)Nc1ccc(C(=O)NCCC2=CCCCC2)cc1	i	0.76	-1.1	21	91	4	·
Cc1ccc(NC(=O)COC(=O)/C=C/c2cccs2)c(C)c1	i	1	0.2	-14	120	-8	109
O=S(=O)(Nc1ccccc1N1CCCCC1)c1ccc(F)cc1	i	1	·	·	·	·	102
CC(C)C(=O)Nc1ncc(C(F)(F)F)cc1Cl	i	0.91	-0.4	26	110	-5	103
CCOC(=O)C1=C(c2ccccc2)NC(=O)NC1c1ccc(OCC#N)c(OC)c1 (centres undefined)	i	0.95	-1.6	·	·	-2	99
COC(=O)c1cc2ccsc2n1Cc1cccc(F)c1	i	0.98	0.9	20	157	-18	106
Cc1cccc(C(=O)NC(=S)NNC(=O)COc2c(C)cccc2C)c1	i	0.94	-1.5	-31	41	6	94
COc1ccc(-c2sccc2C(C)C(=O)O)cc1 (centres undefined)	i	0.95	0.0	·	·	2	111
CCOc1c2ccc(C(=O)NCc3ccc(C(F)(F)F)cc3C(F)(F)F)cc2nn1C	i	0.78	-1.4	·	·	-2	97
COc1ccc(N2CCN(C(=O)c3ccc(NS(=O)(=O)c4cccs4)cc3)CC2)cc1	i	0.89	·	·	·	-8	103
NS(=O)(=O)c1ccc(NC(=O)COC(=O)CCc2ccc(S(=O)(=O)N3CCOCC3)cc2)cc1	i	1	·	·	·	·	103
CCn1nnc(C(=O)O)c1C(=O)O	i	1.1	-1.6	44	108	-5	104
Oc1[nH]c(=S)sc1C=C1N=c2ccccc2=N1	i	1.1	·	·	·	·	97
N#Cc1c(NC(=O)CN2CCN(S(=O)(=O)c3ccc4c(c3)OCCO4)CC2)sc2c1CCC2	i	1	-2.2	50	105	-6	98
O=S(=O)(NC1CCCCC1)c1ccc(-c2csnn2)s1	i	0.81	-1.1	-4	94	0	110
Cc1cc(NC(=O)c2cc(-c3cccs3)nc3ccccc23)no1	i	0.62	-1.1	·	·	-3	107
CCN(CC)CCN(C(=O)c1c(F)cccc1F)c1nc2cc(C)cc(C)c2s1	i	0.95	·	28	99	0	101
COCCCNC(=O)c1cc2c(s1)CS(=O)(=O)C2	i	1	-1.9	13	109	5	122
CC1(C)CC(=O)c2c(noc2-c2ccccc2)C1	i	1.1	-0.1	64	116	4	99
N#CC1(C#N)CC(C=O)=C(N)C1(C#N)CC(=O)C12CC3CC(CC(C3)C1)C2 (centres undefined)	i	1.2	-1.0	-20	75	1	108
CC(=O)Nc1ccc(C(=O)OCC(=O)NCc2ccc(Cl)cc2)cc1	i	0.82	·	21	112	-4	109
O=C(COc1ncnc2cc(Cl)ccc12)c1ccccc1	i	0.88	·	·	·	·	86
CCOC(=O)c1c(C)nc2sc(C(=O)Nc3ccc(C(C)=O)cc3)c(N)c2c1-c1ccc(OC)cc1	?	·	1.9	37	104	1	107
Cc1cc(NC(=O)c2cnccn2)no1	i	1	-1.3	·	·	4	106
COc1ccc(C2CC(c3ccco3)n3ncnc3N2)cc1 (centres undefined)	i	2	-1.8	·	·	-4	95
COCCNC(=O)c1ccc(NC(C)=O)cc1	i	0.9	-2.1	-3	133	2	106
COc1cc(NC(=O)c2cc3ccccc3cc2O)c(OC)cc1Cl	i	0.99	·	·	·	·	104
CCc1nnc(NS(=O)(=O)c2ccc(NC(=O)/C=C/c3ccccc3Cl)cc2)s1	i	0.98	·	·	·	-4	99
O=c1[nH]cnc2c1ncn2[C@H]1CC[C@@H](CO)O1	i	0.99	·	·	·	·	96
Cc1nnc(N/N=C\c2ccc(-c3cccc(C(=O)O)c3)o2)n1N	i	0.98	·	·	·	-4	104
Cc1cc(C)c2c(-n3cccc3)n[nH]c2n1	i	0.8	-0.4	·	·	-2	87
CC(C)c1ccc(S(=O)(=O)c2cn(Cc3ccc(F)cc3)c3cc4c(cc3c2=O)OCO4)cc1	i	1.1	0.2	-28	49	-3	111
O=C(CCCCn1c(=O)[nH]c2ccsc2c1=O)NCC1CCCO1 (centres undefined)	i	0.88	-0.6	·	·	0	97
CCCn1nc(Oc2nc(N(C)C)nc(N(C)C)n2)ccc1=O	i	0.88	·	·	·	5	104
Cc1noc(C)c1C(=O)NC(C)C1CCCO1 (centres undefined)	i	0.99	-1.1	89*	37*	-3	97
CCOC(=O)C1=C(CSc2nc(-c3ccncc3)ccc2C#N)OC(N)=C(C#N)C1c1cccnc1 (centres undefined)	i	1.1	-0.5	·	·	1	95
Cc1onc(-c2ccccc2Cl)c1C(=O)Nc1cc(=O)n(C)c(=O)n1C	i	0.88	-2.3	50	111	-3	·
O=C(CSCc1ccc(Cl)cc1)c1ccco1	i	0.84	·	·	·	·	108

Sorted by SMILES length (lowest first): part of the list above.
SMILES	HSV replic up	HSV replic up primary fold	GALR2 agonist	INS promoter inh	INS promoter inh cell count	PKD1 kinase inh	RGS16-Gao
Cc1noc(C)c1C(=O)NC(C)C1CCCO1 (centres undefined)	i	0.99	-1.1	89*	37*	-3	97
Cc1cc(C)c2c(-n3cccc3)n[nH]c2n1	i	0.8	-0.4	·	·	-2	87
O=c1[nH]cnc2c1ncn2[C@H]1CC[C@@H](CO)O1	i	0.99	·	·	·	·	96
COc1cc(NC(=O)c2cc3ccccc3cc2O)c(OC)cc1Cl	i	0.99	·	·	·	·	104
Cc1nnc(N/N=C\c2ccc(-c3cccc(C(=O)O)c3)o2)n1N	i	0.98	·	·	·	-4	104

Compound profiles, as listed above.
Cc1noc(C)c1C(=O)NC(C)C1CCCO1 (centres undefined) across the screens: HSV replic up: i; HSV replic up primary fold: 0.99; GALR2 agonist: -1.1; INS promoter inh: 89*; INS promoter inh cell count: 37*; PKD1 kinase inh: -3; RGS16-Gao: 97
Cc1nnc(N/N=C\c2ccc(-c3cccc(C(=O)O)c3)o2)n1N across the screens: HSV replic up: i; HSV replic up primary fold: 0.98; GALR2 agonist: ·; INS promoter inh: ·; INS promoter inh cell count: ·; PKD1 kinase inh: -4; RGS16-Gao: 104

Next results:
SMILES	HSV replic up	HSV replic up primary fold	GALR2 agonist	INS promoter inh	INS promoter inh cell count	PKD1 kinase inh	RGS16-Gao
CC(=O)Nc1ccc(/C=N/NC(=O)CCN2CCN(c3ccccc3)CC2)cc1	i	1	·	·	·	-3	102
CCN(C(=O)c1cn(C)c(=O)c2cc(OC)c(OC)cc12)c1ccccc1C	i	1	-0.5	81*	118*	-6	100
CNC(=O)n1ccc(C(=O)N2CCCCC2)n1	i	1	-2.0	-27	80	2	89
CCCN(CC(=O)Nc1ccccc1C)C(=O)CCl	i	0.85	·	5	134	1	112
CCOc1ccc(-c2ccc(/C=C3/C(=N)N4C(C)=CSC4=NC3=O)o2)c([N+](=O)[O-])c1	i	1	-0.9	3	104	-4	103
CC(SCC(=O)NC12CC3CC(CC(C3)C1)C2)C(=O)O (centres undefined)	i	0.95	0.8	7	113	-3	107
COc1ccc(Cn2nnnc2CN(Cc2cc3cccc(C)c3[nH]c2=O)C2CCCC2)cc1	i	1.1	-0.4	·	·	-7	96
O=C(Cn1cnc2c(cnn2-c2ccccc2)c1=O)NC1CCCC1	i	1	-1.5	·	·	6	100
Cc1ccnc(NC(=O)c2ccc(Cl)c(NC(=O)CCc3ccccc3)c2)c1	i	1	·	·	·	2	102
CCOc1ccc(NC(C)c2cc(Cl)ccc2O)cc1 (centres undefined)	i	1.1	-2.2	57	100	2	98
CCOC(=O)c1[nH]c2ccc(OC)cc2c1NC(=O)CCN1CCN(Cc2ccccc2)CC1	·	·	-2.2	·	·	5	97
O=C(c1ccc(=O)[nH]c1)N(Cc1ccco1)C1(C(=O)NC2CCCC2)CCCCC1	·	·	-2.7	-30	126	6	98
COC(=O)c1sc(NC(=O)/C=C/c2ccc(C)cc2)nc1C	·	·	1.0	25	135	0	99
CCOc1cc(C2NC(=S)NC(C)=C2C(=O)Nc2ccccc2)ccc1O (centres undefined)	i	0.91	·	·	·	·	74
CC(Sc1n[nH]c(N)n1)c1nc2scc(-c3cccs3)c2c(=O)[nH]1 (centres undefined)	i	0.98	-3.1	-400	68	-2	99
O=C(CSc1nnc(SCc2ccccc2)s1)N/N=C/c1ccc(C(=O)O)cc1	i	0.88	·	·	·	·	99
O=C(COC(=O)/C=C/c1ccc(OC(F)F)cc1)Nc1ccc(S(=O)(=O)N2CCCC2)cc1	i	0.81	-0.3	-21	96	-6	107
Cc1cc(NC(=O)COC(=O)C2=COCCO2)c([N+](=O)[O-])cc1C	i	0.99	·	·	·	-3	103
O=C(CCN1C(=O)C2C3C=CC(C3)C2C1=O)Nc1c(F)cc(F)cc1Br (centres undefined)	i	0.94	4.3	-6	82	-5	100
COCC(=O)Nc1nnc(Cc2ccc(OC)c(OC)c2)s1	i	0.93	-0.4	55	109	-6	73
CC(OC(=O)c1cccs1)C(=O)NCc1ccc2c(c1)OCO2 (centres undefined)	i	1.1	-1.7	38	98	-8	99
CCn1c(SCC(=O)Nc2cccc(C)c2)nc2c(c1=O)SC(C)C2 (centres undefined)	i	0.91	-2.0	·	·	8	114
CCN(CC)S(=O)(=O)c1ccc2c3c(cccc13)C(=O)S2	i	0.94	-1.2	-11	172	2	102
Cn1cnnc1SCC(=O)Nc1ccc(Cl)cn1	i	0.94	·	·	·	-5	94
Cc1cc(Cl)ccc1-n1c(-c2cccnc2)n[nH]c1=S	i	1.1	·	·	·	·	103
COc1ccc(O)c(C(=O)c2cnn(C(=O)c3cccc(S(=O)(=O)N4CCOCC4)c3)c2)c1	i	0.99	·	·	·	-12	102
CCOC(=O)c1c(C)[nH]c(C(=O)CN2CC(C)OC(C)C2)c1C (centres undefined)	i	1.1	-0.9	·	·	-5	112
CC(=O)C(Sc1ncnc2c1nnn2-c1ccc(F)cc1)C(=O)N(C)C (centres undefined)	i	1.1	-1.0	·	·	-10	59
N#Cc1c(SCC(=O)Nc2nccs2)nc2c(c1-c1ccco1)CCCC2	i	0.73	-1.0	30	131	-9	76
CCCCN1C(=O)c2ccc(C(=O)Nc3cccnc3)cc2C1=O	i	1.1	-1.5	-375	36	-9	73
Cc1nc2ccccc2n1CC(=O)N/N=C\C=C\c1ccccc1	i	0.94	-0.6	-4	49	-18	96
Cc1ccc(N(CC(=O)NC(C)(C)C)C(=O)CS(=O)CC(=O)Nc2ccc(F)cc2)cc1 (centres undefined)	i	0.91	·	·	·	-1	105
